# Source: PubChem BioAssay (several laboratories)
# YopH PTP inh: inhibitors of Yersinia enterocolitica YopH tyrosine phosphatase. fluorescence Ex485/Em525. inhibition, %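 (about 10 µM by stock and volumes)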. hit rate 0.16% among 140,000;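 active means inhibition of 50% or more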;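 further: controls were vehicle for no effect and minimum signal wells for full effect; inactives centre near -20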
# Mtb growth: M. tuberculosis H37Rv growth inhibitors, H37Rv strain (AID 1626); M. tuberculosis H37Rv growth inhibition; higher % means a stronger effect; inhibition, % at 10 µM, or IC50 in µM where a hit was titrated; hit rate 0.95% among 220,000;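 active means confirmed in a dose series; inconclusive means inhibition above 80% but not taken into the dose series; inactive means below 80% or under 30% at every dose of the series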;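 further: bacteria incubated seven days before Alamar blue readout; 0% = bacteria only wells and 100% = bacteria with antibiotic wells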
# Arbovirus inh: blocks arbovirus infection | arbovirus infection cell-based antiviral screen | inhibition, % at 10 µM | hit rate 0.37% among 200,000 | AID 1251;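 active means inhibition from about 30%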;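 further: bluetongue infection of BSR cells; cell survival read as ATP light after 72 h; 0% = infected wells without compound and 100% = uninfected wells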
# Mtb bLac sens: beta-lactam sensitization of Mtb H37Rv; M. tuberculosis H37Rv growth with meropenem, percent inhibition; hits of this screen are not shown here; inhibition, % at 25 µM; hit rate 0.27% among 330,000; AID 434955;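 active means about 74% or more and at least 40 points above the plate without the antibiotic, then above 30% in a dose series; inconclusive means first-round hits that could not be retested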;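 further: growth measured after seven days incubation then overnight dye step; 0% = bacteria only wells and 100% = bacteria with antibiotic; twin plates without the antibiotic show which effects depend on it; some results filed as inactive read as strong as hits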
# RecA splice inh: inhibitors of M. tuberculosis RecA intein splicing | P9WHJ3 | cell-free RecA intein splicing, fluorescence | inhibition, %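 (about 9 µM by stock and volumes)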 | hit rate 0.75% among 290,000; in the data active means inhibition above about 30%; inconclusive means no clear call, values can overlap the other calls;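 further: 0% = vehicle wells and 100% = reference inhibitor control wells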
# Target sequence (P9WHJ3 whole entry, looked up, canonical isoform): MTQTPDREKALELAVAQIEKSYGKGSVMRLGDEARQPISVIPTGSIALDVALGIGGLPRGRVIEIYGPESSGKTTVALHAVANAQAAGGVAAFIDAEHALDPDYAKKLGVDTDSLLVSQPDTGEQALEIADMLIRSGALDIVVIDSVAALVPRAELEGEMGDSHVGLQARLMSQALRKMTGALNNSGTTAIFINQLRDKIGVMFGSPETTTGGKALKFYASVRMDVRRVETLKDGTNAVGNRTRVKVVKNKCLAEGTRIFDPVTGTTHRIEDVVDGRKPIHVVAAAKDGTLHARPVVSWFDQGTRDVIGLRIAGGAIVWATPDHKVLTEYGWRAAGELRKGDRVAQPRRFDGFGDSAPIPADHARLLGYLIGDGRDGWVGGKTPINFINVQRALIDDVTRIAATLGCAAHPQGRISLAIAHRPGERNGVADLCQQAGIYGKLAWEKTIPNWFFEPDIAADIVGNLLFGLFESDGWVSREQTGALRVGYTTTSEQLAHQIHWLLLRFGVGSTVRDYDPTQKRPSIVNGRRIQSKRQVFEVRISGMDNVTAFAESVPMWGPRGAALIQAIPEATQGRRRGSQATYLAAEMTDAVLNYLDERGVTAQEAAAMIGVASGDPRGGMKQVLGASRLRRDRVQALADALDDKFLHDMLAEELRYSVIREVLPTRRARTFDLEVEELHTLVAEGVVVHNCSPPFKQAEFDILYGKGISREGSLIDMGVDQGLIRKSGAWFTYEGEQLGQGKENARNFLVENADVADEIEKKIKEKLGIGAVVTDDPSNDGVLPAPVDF
# Arbovirus inh repeat: also measured in Arbovirus inh; calls as there; inhibition, %; measured here: 10K subset replicate screen; many hits read low in the repeat;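 first of two repeat runs on a subset; 0% = infected and 100% = uninfected wells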
# Active calls of the source: *; ? = inconclusive; / = not tested or not shown.
SMILES,YopH PTP inh,Mtb growth,Arbovirus inh,Mtb bLac sens,RecA splice inh,others
CCOC(=O)c1[nH]c(C)c(C(=O)OCc2ccc(C)cc2)c1C,/,/,/,2,-0.5,
COCCn1c(-c2ccc(OC)cc2)cnc1N,-23,-2%,7,-2,7.7,
CC1(C)C(O)=C(c2nc3ccccc3[nH]2)C(=N)N1c1ccccc1,-39,-3%,-27,9,22,
CCOc1ccc(NC(=O)CSc2ncn[nH]2)cc1,/,/,/,82,-0.5,
COc1ccccc1-c1cc(-c2ccccc2)nc(SCC(=O)O)c1C#N,/,/,/,6,1.8,
N#Cc1c(N)nc2c(c1-c1ccncc1)CCCC2,-2,-10%,6,-7,-1.1,
CCCC(=O)Nc1ccc(NC(=O)c2ccccc2)nc1,/,/,/,-4,-1.3,
CCOC(=O)NC1(C(F)(F)F)C(=O)NC(C)=C1C#N (centres undefined),5,-3%,2,5,-7.2,
CCCN1CCN(C(=O)C2CCN(S(=O)(=O)c3ccc4c(c3)oc(=O)n4C)CC2)CC1,-44,-1%,14,/,/,Arbovirus inh repeat=13
CC(NS(=O)(=O)c1cn(C)c(=O)n(C)c1=O)c1ccccc1 (centres undefined),/,/,/,5,0.7,

# The list goes on, starting with the last 2 of the part before.
SMILES,YopH PTP inh,Mtb growth,Arbovirus inh,Mtb bLac sens,RecA splice inh,others
CCCN1CCN(C(=O)C2CCN(S(=O)(=O)c3ccc4c(c3)oc(=O)n4C)CC2)CC1,-44,-1%,14,/,/,Arbovirus inh repeat=13
CC(NS(=O)(=O)c1cn(C)c(=O)n(C)c1=O)c1ccccc1 (centres undefined),/,/,/,5,0.7,
CC(C)=CC1C(C(=O)NCCOc2ccccc2)C1(C)C (centres undefined),/,/,/,2,3.7,
CCS(=O)(=O)N1Cc2ccccc2CC1C(=O)Nc1cc(S(C)(=O)=O)ccc1Cl (centres undefined),/,/,/,-2,-0.7,
Cc1ccc(CNC(=O)/C(C#N)=C/c2ccc(C)s2)cc1,-26,6%,2,-5,4.9,
O=C(Nc1ccccc1)C1CC(=O)n2c(nc3ccccc32)N1 (centres undefined),/,-8%,/,3,-23,
CC(=O)NCCc1nc2ccccc2n1Cc1ccc(Cl)cc1,/,-2%,2,-1,2.7,
Cc1cc(NC(=O)CSc2nc3ccccc3[nH]2)n(-c2ccccc2)n1,/,-1%,/,1,5.4,
CN(C)c1cccc(C(=O)N/N=C/c2ccccc2F)c1,/,-1%,-7,3,-3.0,
COc1ccc(NC(=O)CSc2nnnn2C)c([N+](=O)[O-])c1,/,-8%,3,3,0.3,
COc1cccc(NS(=O)(=O)c2c(C)cc(C)cc2C)c1,-59,1%,-5,-4,4.7,
COc1ccc2c(c1)CCc1c-2nc2ccccc2c1N1CCOCC1,/,12µM*,/,95,-11,
COc1cccc(OC)c1OCCCSc1nc(C)cc(=O)[nH]1,-7,-3%,12,-2,0.8,
O=C(CNC(=O)N1CC(=O)Nc2ccccc21)Nc1nccs1,/,/,/,-4,-1.1,
COC(=O)CSc1nnc2c3c4c(sc3nc(-n3nc(C)cc3C)n12)COC(C)(C)C4,-30,-4%,6,8,-2.2,
O=C(Nc1ccc(Oc2ccccc2)nc1)C1CCCCN1Cc1cccc(O)c1 (centres undefined),/,/,/,-14,-2.1,
CCCC(=O)NC(=S)Nc1nc(-c2ccc(OC)cc2)cs1,-25,9%,-9,7,-1.8,
Cc1ccccc1NC(=S)NNC(=O)c1cccc(Br)c1,/,0%,3,0,6.3,
Cc1cc(C=C2C(=O)NC(=S)NC2=O)c(C)n1-c1ccc2c(c1)OCO2,-18,-6%,-26,/,-5.5,
CCOCCCNC(=O)C(c1ccc(Cl)cc1)N1CCN(C(=O)c2ccco2)CC1 (centres undefined),-39,-10%,0,2,0.2,Arbovirus inh repeat=2
CN(C(=O)CSc1nnnn1-c1ccccc1)C1CCCCC1,-37,7%,4,-8,4.2,
COc1cc2ccc(=O)oc2c2ccoc12,-14,9%,-8,8,-3.4,
Cc1c(NC(=O)CN2CC(C)OC(C)C2)c(=O)n(-c2ccccc2)n1C (centres undefined),-21,1%,2,-2,/,
COC(=O)c1ccccc1S(=O)(=O)N1CCCC(c2nc3c(nnn3Cc3ccc(C)cc3)c(=O)[nH]2)C1 (centres undefined),/,/,/,2,2.1,
CC1CCN(c2c([N+](=O)[O-])nn(-c3ccc4c(c3)OCCO4)[n+]2[O-])CC1,12,0%,8,8,6.1,
Cc1nc2cc(C(F)(F)F)ccc2n1C1CCN(Cc2nnnn2CCc2ccccc2)CC1,-19,3%,-15,77,-0.7,
CCCCCCN1Cc2ccccc2C1,-10,-6%,2,2,1.8,
O=C(NCc1n[nH]c(=S)n1-c1ccc(Cl)c(Cl)c1)c1ccc(S(=O)(=O)N2CCCCC2)cc1,/,/,/,-2,0.6,
O=S(=O)(c1ccc(Cl)cc1)N1CCn2c1nc1ccccc12,-47,2%,16,5,2.1,
CCc1cc2c(=O)c(-n3cnc4ccccc43)coc2cc1O,-24,7%,-2,-3,-7.5,
COC(=O)c1ncccc1SC,5,0%,8,-4,1.3,
Cc1nc(N2CCN(S(=O)(=O)c3ccc(Br)cc3)CC2)c2c(C)c(C)sc2n1,/,-5%,-2,-5,2.2,

# Continued; it opens with the 2 that closed the last part.
SMILES,YopH PTP inh,Mtb growth,Arbovirus inh,Mtb bLac sens,RecA splice inh,others
COC(=O)c1ncccc1SC,5,0%,8,-4,1.3,
Cc1nc(N2CCN(S(=O)(=O)c3ccc(Br)cc3)CC2)c2c(C)c(C)sc2n1,/,-5%,-2,-5,2.2,
CCCN(CCC)C(=O)Cn1c(=O)n(CCCC(=O)NCc2ccco2)c(=O)c2sccc21,/,-7%,1,-3,-1.4,
Cn1cccc1/C=N/NC(=O)CSc1nc2ccccc2n1C,/,-9%,/,-7,-1.7,
O=C(CN1CCOC1=O)N1CCCC(N2CCN(c3cccc(C(F)(F)F)c3)CC2)C1 (centres undefined),/,/,/,-6,-11,
O=C1N=c2ccccc2=C1c1sc(=S)n(NC(=O)c2cccc(O)c2)c1O,/,68%,-1,/,4.1,
CCOC(CNC(=O)c1ccc2c(c1)ncn2-c1ccc(F)c(F)c1)OCC,/,-4%,-2,5,/,
Cc1ccc2c(c1)C(c1ccc(N3CCOCC3)cc1)=NNC(c1cccs1)=N2,-16,3%,6,99,0.6,
Cc1cc(OCC(=O)NCCO)ccc1Cl,-27,-9%,-2,4,0.6,
COc1ccc(NC(=O)N2CCN(c3ccc([N+](=O)[O-])cc3)CC2)cc1,/,-1%,7,2,0.2,
CC1CC(C)CN(C(=S)Nc2ccc(SC(F)F)cc2)C1 (centres undefined),-6,-1%,17,-1,4.0,
Cc1cccc(S(=O)(=O)Nc2nc3ccccc3nc2NCc2ccc3c(c2)OCO3)c1,-29,/,0,-2,0.9,
CC(=O)c1c(C)[nH]c(C(=O)NCc2ccccn2)c1C,-38,-5%,-2,-3,-4.2,
O=C(c1ccccn1)N1N=C2/C(=C/c3ccccc3)CCCC2C1c1ccccc1 (centres undefined),-23,0%,-15,2,3.9,
O=C(c1ccc(F)cc1)N1CCCC(N2CCN(Cc3ccc4c(c3)OCO4)CC2)C1 (centres undefined),/,/,/,-14,-3.5,
Cc1ccc(CNC(=O)c2coc(=O)c3ccccc23)o1,-17,6%,4,2,4.1,
CCN(CC)C(=O)C1CCN(S(=O)(=O)c2ccc(C3CNC(=O)C3)cc2)CC1 (centres undefined),-25,-6%,-4,1,-1.4,Arbovirus inh repeat=2
Cc1[nH]c2ccccc2c1CN1CCN(c2ccccn2)CC1,/,-3%,/,-7,-5.4,
Cc1c(N=C2N=C(NC(=O)c3ccc(F)cc3)c3ccccc32)c(=O)n(-c2ccccc2)n1C,/,4%,2,-2,/,
COc1ccc(N2CCN(S(=O)(=O)c3ccc4c(c3)CC(C)N4C(=O)C3CC3)CC2)cc1 (centres undefined),/,/,/,5,-1.0,
O=C(COC(=O)Cc1ccccc1)Nc1cc(S(=O)(=O)N2CCCCC2)ccc1Cl,/,/,/,1,7.2,
Cc1ccc(N(Cc2cc3ccc(C)cc3[nH]c2=O)C(=O)c2ccco2)cc1,/,-2%,/,-7,1.1,
COc1ccc(CN2C(=O)c3ccccc3C(/C=N\OCc3ccc(C)cc3)C2=O)cc1 (centres undefined),-16,3%,-11,-7,-2.7,
CCC(=O)NC(=S)Nc1ccc(NC(=S)NC(=O)c2ccc(C)cc2)cc1,/,0%,-1,14,-1.9,
O=C(c1cccs1)N1CCCC(c2nc3c(nnn3Cc3ccccc3)c(=O)[nH]2)C1 (centres undefined),/,-10%,/,-5,-0.8,
c1cc2c(cc1-c1[nH]ncc1CN1C[C@H]3CC[C@H]1C3)OCO2,/,-3%,3,-5,3.0,
CCOC(=O)CNC(=O)CSc1nc2nc(C)c(Br)cc2[nH]1,-31,-3%,2,0,-0.6,
O=c1[nH]c2ccccc2c2nc3ccccn3c12,-38,-2%,3,2,-8.7,
COc1cc(/C=N/n2cnnc2)ccc1OC(=O)c1cccnc1,-3,0%,0,-2,2.7,Arbovirus inh repeat=4
Cn1cccc1CNC(=S)Nc1ccccc1F,/,-8%,-3,-8,-1.3,
CC(C)NC(=O)CSc1nc2ccccc2n1CC(=O)N(C(C)C)C(C)C,/,0%,13,/,-1.3,
O=C(NCC(=O)N1CC=C(c2ccccc2)CC1)c1ccco1,/,/,/,2,-0.4,
Cc1cccc(NC(=O)[C@H](C)NC(=O)[C@@H]2Cc3ccccc3CN2C(=O)OC(C)(C)C)c1,/,/,/,?,4.1,
O=C(CN(Cc1ccccc1)C(=O)CCC(=O)Nc1nccs1)NCc1ccccc1,/,/,/,-2,1.3,
CC(C)(C)c1ccc(-n2nc(C(N)=O)c(O)cc2=O)cc1,/,0%,0,-6,-3.6,
C[n+]1cnn2c1SCC1(COC1)C2,-37,5%,-1,-2,-0.7,
COc1ccc(C(=O)c2c(C)c3cc(C)ccc3n2CC(O)CN2CCOCC2)cc1 (centres undefined),-7,11%,-8,28,-0.8,
OC(CNCc1ccc(-c2ccccc2)cc1)c1ccccc1 (centres undefined),/,31%,-16,4,0.9,
COc1cccc(OC)c1C(=O)Nc1ccc(C(=O)c2ccncc2)cc1,/,/,/,3,0.0,
O=C1CN(C(=O)CN2CCCC2)C(c2ccccc2)c2cc(Br)ccc2N1 (centres undefined),-23,-1%,10,-10,3.0,
Cc1csc(C(C)N(C)C(=O)CCc2nnc(CCc3ccccc3)o2)n1 (centres undefined),/,2%,7,1,-2.0,
Cc1c(C(=O)N(Cc2ccccc2)Cc2cccs2)cnn1-c1ccc(Cl)cc1,/,9%,/,4,12,
COc1ccc(/C=C(\NC(=O)c2ccc(OC)cc2)C(=O)Nc2cccc(C(=O)O)c2)cc1,/,/,/,2,-5.8,
CCCCOc1ccc([N+](=O)[O-])cc1C(=O)O,/,1%,0,0,-1.8,
COC(=O)c1ccc(NC(=O)c2ccccc2)o1,3,5%,-9,-5,-2.5,
COc1ccc(OC)c(C2=NOC(C(=O)NCCN3CCOCC3)C2)c1 (centres undefined),8,-5%,2,-10,-1.4,
CC1(C)Cc2c(c(-c3ccccc3)nc3[nH][nH]c(=O)c23)CO1,-28,-9%,0,6,-1.9,
COc1ccc(CC(=O)NNc2ncnc3c2cnn3C)cc1,-12,0%,0,4,8.0,
N#C/C(=C\c1cccc(OCC(=O)O)c1)c1nc2ccccc2[nH]1,/,/,/,1,-0.7,

# Part of the list above in order of heavy-atom count, smallest number first.
SMILES,YopH PTP inh,Mtb growth,Arbovirus inh,Mtb bLac sens,RecA splice inh,others
N#Cc1c(N)nc2c(c1-c1ccncc1)CCCC2,-2,-10%,6,-7,-1.1,
Cc1nc(N2CCN(S(=O)(=O)c3ccc(Br)cc3)CC2)c2c(C)c(C)sc2n1,/,-5%,-2,-5,2.2,
O=C(COC(=O)Cc1ccccc1)Nc1cc(S(=O)(=O)N2CCCCC2)ccc1Cl,/,/,/,1,7.2,

# 7 compounds drawn at random from the list so far:
SMILES,YopH PTP inh,Mtb growth,Arbovirus inh,Mtb bLac sens,RecA splice inh,others
COc1ccc(OC)c(C2=NOC(C(=O)NCCN3CCOCC3)C2)c1 (centres undefined),8,-5%,2,-10,-1.4,
CCCCOc1ccc([N+](=O)[O-])cc1C(=O)O,/,1%,0,0,-1.8,
CC1(C)Cc2c(c(-c3ccccc3)nc3[nH][nH]c(=O)c23)CO1,-28,-9%,0,6,-1.9,
COC(=O)c1ccc(NC(=O)c2ccccc2)o1,3,5%,-9,-5,-2.5,
COc1ccc(CC(=O)NNc2ncnc3c2cnn3C)cc1,-12,0%,0,4,8.0,
N#C/C(=C\c1cccc(OCC(=O)O)c1)c1nc2ccccc2[nH]1,/,/,/,1,-0.7,
COc1ccc(/C=C(\NC(=O)c2ccc(OC)cc2)C(=O)Nc2cccc(C(=O)O)c2)cc1,/,/,/,2,-5.8,

# An excerpt; count on the stated rates, not on these rows.
